High-throughput results from PubChem BioAssay.
Sfp inh: Sfp phosphopantetheinyl transferase inhibition; Q9F4F7; Biochemical Sfp PPTase activity, qHTS; Potency, µM, for inactives: max response, negative = inhibition, usual class: inhibitors; 310,000 tested, 3.5% active; AID 1490; active = well fitted inhibition curve with a large enough effect; inconclusive = small, poorly fitted or top-dose-only effect, or another doubt; inactive = no such curve, though single readings can be large or run the other way;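 also: the enzyme is Sfp with the accession as filed and its product quenches rhodamine fluorescence; potency is read from the fitted curve at half-maximal effect; 0% = enzyme reaction without inhibitor and -100% = no enzyme wells; top concentration of the series not given in the record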
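Step 1, compound plus 15 nM Sfp-PPTase, 15 min, room temperature. Step 2, add rhodamine-CoA (5 uM) and BHQ-2-YbbR (12.5 uM). Step 3, read 525/598 nm fluorescence at 0 and 30 min.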
gsp antag: antagonizes gsp, the McCune-Albright syndrome mutation; gsp-mutant cells, cAMP HTRF, 30 min; control for the full effect not named in the record; Potency, µM (series often up to 76.9 µM), for inactives: at the highest dose activity change, negative = inhibition, hits mostly inhibitors; AID 624288; 340,000 tested, 0.4% active; active = falling curve of any shape with a large fitted effect; inconclusive = falling curve, mostly with a smaller effect; inactive = flat or rising curve; cell line not stated here;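 also: intracellular cAMP measured with PDE inhibitor Ro 20-1724 present during compound exposure; potency is read from the fitted curve at half-maximal effect; % is scaled to controls: 0 for no effect and ±100 for the full control effect; nearly all actives have a fitted effect of over 65% in size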
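HTRF cAMP read-out (cAMP-d2 plus anti-cAMP antibody-K in lysis buffer, 30 min RT). Before lysis, cells are exposed to compounds with […] for 30 min at 37C in DPBS containing Ca/Mg, BSA and Tween 20.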
ClpP mod: qHTS Assay for Activators of ClpP; purified B. subtilis ClpP, FRET peptide cleavage, 20 min; Potency, µM (top dose mostly 57.5 µM), for inactives: at the highest dose activity change, negative = active; 340,000 tested, 1.9% active; AID 651965, 2013; active = well fitted falling curve with a large enough effect; inconclusive = small, poorly fitted or top-dose-only effect; inactive = no such curve, though single readings can be large or run the other way; also: potency is read from the fitted curve at half-maximal effect; the source files actives as falling curves though it sought activators and does not explain the sign; nearly all actives have a fitted effect of over 65% in size; many hits overshoot -100%
Target sequence (P80244 whole entry, looked up): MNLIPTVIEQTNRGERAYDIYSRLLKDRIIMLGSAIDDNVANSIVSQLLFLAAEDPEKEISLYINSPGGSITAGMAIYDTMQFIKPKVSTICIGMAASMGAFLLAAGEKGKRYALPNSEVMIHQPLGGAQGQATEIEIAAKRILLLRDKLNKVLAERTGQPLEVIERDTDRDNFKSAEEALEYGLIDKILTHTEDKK
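ClpP 10 microg/mL final, pH 8 Tris/KCl buffer with BSA, glycerol, Tween-20; compound pinned in; FRET-FV substrate; RT 20 min; Ex320/Em430; ΔFRET vs ADEP 5.8 microM, DMSO, no enzyme.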
TRPV1 PAM: enhances activation of the human vanilloid receptor TRPV1; Q8NER1; TRPV1-expressing cells, Fluo-8 calcium influx, capsaicin EC20 potentiation; host cell line not named in the record; control for the full effect not named in the record; potentiation, % at 8.33 µM; 320,000 tested, 0.02% active; active means potentiation above 80%; inconclusive means 30% to 80%; inactive means below 30%; also: 0% is about no effect
Target sequence (Q8NER1 whole entry, looked up): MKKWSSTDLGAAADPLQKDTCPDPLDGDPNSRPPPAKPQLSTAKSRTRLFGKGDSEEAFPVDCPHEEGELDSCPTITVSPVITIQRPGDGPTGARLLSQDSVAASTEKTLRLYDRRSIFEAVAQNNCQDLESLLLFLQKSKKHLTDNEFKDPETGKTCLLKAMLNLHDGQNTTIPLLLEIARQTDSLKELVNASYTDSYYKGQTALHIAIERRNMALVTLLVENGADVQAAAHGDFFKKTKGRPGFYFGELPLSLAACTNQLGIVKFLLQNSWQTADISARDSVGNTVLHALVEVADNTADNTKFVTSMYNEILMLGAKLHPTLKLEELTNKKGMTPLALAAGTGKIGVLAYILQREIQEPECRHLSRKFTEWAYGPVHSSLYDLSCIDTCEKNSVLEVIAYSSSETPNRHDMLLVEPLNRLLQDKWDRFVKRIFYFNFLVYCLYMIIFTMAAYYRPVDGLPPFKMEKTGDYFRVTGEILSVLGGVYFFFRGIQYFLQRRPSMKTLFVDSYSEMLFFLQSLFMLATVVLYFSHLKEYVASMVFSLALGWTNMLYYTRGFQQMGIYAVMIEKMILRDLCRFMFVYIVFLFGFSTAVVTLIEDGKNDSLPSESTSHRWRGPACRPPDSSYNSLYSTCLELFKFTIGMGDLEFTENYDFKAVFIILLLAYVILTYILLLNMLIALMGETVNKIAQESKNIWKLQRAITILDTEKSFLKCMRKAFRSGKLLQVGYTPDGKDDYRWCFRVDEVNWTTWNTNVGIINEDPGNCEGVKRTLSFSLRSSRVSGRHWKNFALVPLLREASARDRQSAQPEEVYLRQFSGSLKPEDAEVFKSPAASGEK
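Fluo-8 calcium influx in TRPV1-expressing cells, kinetic read (ex 480/em 520 nm). Compound added and read 3 min for agonist activity, followed by capsaicin at EC20 final and 2 min further read for enhancement.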
gsp ag: activates gsp, the McCune-Albright syndrome mutation; gsp mutant cells, cAMP HTRF, 30 min; control for the full effect not named in the record; Potency, µM (highest dose often 76.9 µM), for inactives: at the highest dose activation (cAMP increase), usual class: activators; 340,000 tested, 0.13% active; active = well fitted activation curve with a large enough effect; inconclusive = small, poorly fitted or top-dose-only effect, or another doubt; inactive = no such curve, though single readings can be large or run the other way; cell line not stated here;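 also: phosphodiesterase inhibitor Ro 20-1724 added with compounds to block cAMP breakdown; potency is read from the fitted curve at half-maximal effect; nearly all actives have a fitted effect of over 60% in size; about a fifth of the inactives were tested at one dose only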
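Cells in DMEM/10% FBS with G418 were pretreated with compounds in DMSO plus […] (300 uM stock) for 30 min at 37C. cAMP was measured by HTRF (cAMP-d2 plus anti-cAMP antibody-K) after 30 min at room temperature.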
Menin MLL FP FL: menin-MLL binding inhibition, fluorescein peptide; Fluorescence polarization, fluorescein-MLL peptide displacement from menin; FP activity change, % at 61.4 µM; 290,000 tested, under 10 active; AID 1766; inconclusive = falling polarisation curve, or a change in total fluorescence; inactive = total fluorescence flat and polarisation flat or rising; no compound was filed as active; the % refers to the polarisation; negative = inhibition;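 also: % of control where 0% means no effect; inhibitors lower the polarisation; unlabelled MLL peptide was the positive control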
CtBP-E1A inh: CtBP/E1A binding inhibition; activity change, % (no concentration beside the values); AlphaScreen GST-E1A/His-CtBP binding, 1536-well; active compounds read low; control for the full effect not named in the record; AID 651724; 340,000 tested, 0.49% active; in the data active means activity change below about -65%; inconclusive means about -30% to -65%; inactive means above about -30%; also: % is scaled to controls: 0 for no effect and ±100 for the full control effect
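In 5 uL wells, 23 nL compound meets equimolar GST-E1A and His-CtBP (5X stock 125 nM each) for 2 h, 37 °C. Beads (5X, 50 ug/mL) then 1 h, 37 °C, dark.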
An asterisk follows results filed as active; & = joins results of further samples; [ ] = dose if it differs, or a comment.

For C[C@H](CO)N1C[C@H](C)[C@@H](CN(C)C(=O)Nc2ccccc2F)OCc2cnnn2CCCC1=O the results were ClpP mod 1.3%, gsp ag -22.6% and CtBP-E1A inh 2.9.
For COc1ccc(OCC(=O)NCCCn2ccnc2)cc1 the results were Sfp inh 8.8%, gsp antag 8.5%, TRPV1 PAM 24.5, gsp ag 2.8%[15.4 µM], Menin MLL FP FL -0.9 and CtBP-E1A inh 2.5.
For Cc1noc(C)c1COC(=O)CCOc1ccccc1 the results were Sfp inh 11.5%, gsp antag 11.3%, ClpP mod -0.8%, TRPV1 PAM -2.3, gsp ag inconclusive, Menin MLL FP FL 3.6 and CtBP-E1A inh 2.5.
For COC(=O)c1cn(CC(=O)N2CCCCCC2)c2ccccc12 the results were Sfp inh 0.9%, gsp antag 13.5%, ClpP mod -1.2%, TRPV1 PAM -4.6, gsp ag -0.6%, Menin MLL FP FL -0.2 and CtBP-E1A inh -0.1.
Screening Cc1ccc(-n2[nH]c(=O)c3cccnc32)cc1 returned Sfp inh 18.0%, gsp antag -34.6%, ClpP mod -0.5%, gsp ag -0.1%, Menin MLL FP FL -2.2 and CtBP-E1A inh 0.0.
For O=C(NCCCN1CCOCC1)c1ccc2c(c1)N(Cc1ccc(F)cc1)CCS2 the results were Sfp inh -10.8%, gsp antag -0.7%, ClpP mod 3.7%, TRPV1 PAM -17.9, gsp ag 35.9% and CtBP-E1A inh -18.1.
`O=C(NNC(=O)c1ccc(-n2cncn2)c([N+](=O)[O-])c1)c1ccc(Cl)cc1` gave gsp antag -0.7%, ClpP mod -3.6%, TRPV1 PAM -4.7, gsp ag -6.0% and CtBP-E1A inh 0.0.
`COc1ccc(NC(=O)CN(C)C(=O)c2ccc(OCc3ccccc3)c(OC)c2)cc1` gave gsp antag -2.6%, ClpP mod 0.5%, TRPV1 PAM -2.5, gsp ag 1.6% and CtBP-E1A inh 6.1.
For Cc1ccc(N2C(=O)c3ccccc3C2Nc2ccccc2F)nc1 (configuration not stated) the results were Sfp inh 14.5%, gsp antag -6.5%, ClpP mod 1.7%&-1.8%, TRPV1 PAM -3.5, gsp ag -34.9%, Menin MLL FP FL -2.0 and CtBP-E1A inh 0.3.
Cc1cccc(C)c1NC(=S)NCc1ccncc1 was read as Sfp inh -16.6%, gsp antag 11.5%, TRPV1 PAM 0.4, gsp ag -3.6%[15.4 µM], Menin MLL FP FL -8.4 and CtBP-E1A inh -7.1.
CC(C)(C)N(Cc1ccccc1)C(=O)CSc1ncn[nH]1 was read as Sfp inh 11.8%, gsp antag 2.1%, TRPV1 PAM -3.3, gsp ag -7.9%[15.4 µM], Menin MLL FP FL 4.2 and CtBP-E1A inh 6.2.
N#Cc1c(N)n(CCOC(=O)c2ccc(Cl)cc2)c2nc3ccccc3nc12 was read as Sfp inh 1.5%, gsp antag -6.3%, ClpP mod 28.2µM*, TRPV1 PAM -17.7, gsp ag 16.9%, Menin MLL FP FL 18.4 and CtBP-E1A inh 0.4.
For Cc1cc(NC(=O)/C=C/c2ccccc2)no1 the results were Sfp inh 19.7%, gsp antag 0.6%, ClpP mod -0.3%, TRPV1 PAM -16.9, gsp ag -11.1%, Menin MLL FP FL -0.7 and CtBP-E1A inh 14.5.
CC1(C)Cc2c(sc3nnn(Cc4ccc(Cl)cc4)c(=O)c23)CO1 was read as Sfp inh -15.5%, gsp antag -21.0%, ClpP mod -2.0%, TRPV1 PAM 12.8, gsp ag 5.7%, Menin MLL FP FL 8.3 and CtBP-E1A inh 1.1.
O=c1c2ccccc2nc(COc2ccccc2)n1/N=C/c1cc([N+](=O)[O-])ccc1O was read as Sfp inh 7.3%, gsp antag -62.0%, ClpP mod -2.8%, TRPV1 PAM inconclusive, gsp ag -52.1%[inhibitor], Menin MLL FP FL 5.2 and CtBP-E1A inh -4.9.
For O=S(=O)(c1ccc(-c2ccon2)s1)N1CCN(CCN2CCOCC2)CC1 the results were Sfp inh inconclusive, gsp antag -1.3%, ClpP mod 0.1%, gsp ag 11.6%[15.4 µM], Menin MLL FP FL 5.2 and CtBP-E1A inh 6.3.
Screening O=C(/C=C/c1ccco1)Nc1ccc(CN2CCOCC2)cc1 returned Sfp inh -1.3%, gsp antag -3.5%, ClpP mod 0.9%, TRPV1 PAM -7.0, gsp ag -6.5% and Menin MLL FP FL 1.1.
For CC(C)(C)C(=O)Nc1nc(-c2ccc3c(c2)OCO3)cs1 the results were Sfp inh 1.9%, gsp antag inconclusive, ClpP mod -1.0%, TRPV1 PAM 2.5, gsp ag 8.5%[15.4 µM], Menin MLL FP FL 1.3 and CtBP-E1A inh -2.2.
`COc1ccc(NC(=S)NC(=O)/C=C/c2ccco2)cc1` gave Sfp inh 6.4%, TRPV1 PAM -3.1, gsp ag 3.5%[15.4 µM], Menin MLL FP FL 0.9 and CtBP-E1A inh -11.0.
Screening CCOC(=O)n1c(=O)n(Cc2ccc(Cl)c(Cl)c2)c2ccccc21 returned Sfp inh inconclusive, gsp antag -12.8%, ClpP mod 1.3%, TRPV1 PAM -9.0, gsp ag inconclusive, Menin MLL FP FL 2.1 and CtBP-E1A inh -1.6.
`Clc1ccccc1NCSC1=NCCS1` gave gsp antag -6.9%, gsp ag 27.2% and CtBP-E1A inh -1.6.
CCOC(=O)CC1C(=O)NCCN1S(=O)(=O)c1ccc(OC)cc1 (configuration not stated) was read as Sfp inh 19.4%, gsp antag -13.4%, TRPV1 PAM 1.2, gsp ag 34.8%, Menin MLL FP FL -0.6 and CtBP-E1A inh 5.3.
`Cc1cc(-c2nnc(CCC(=O)NC(C)(C)C34CC5CC(CC(C5)C3)C4)o2)no1` gave gsp antag 2.7%, gsp ag 8.9%[15.4 µM] and CtBP-E1A inh 2.7.
Screening CCN(CC)S(=O)(=O)c1ccc(C(=O)Nc2cc(S(=O)(=O)N3CCOCC3)ccc2N2CCN(C)CC2)cc1 returned gsp antag -12.7%, ClpP mod 0.2%, gsp ag -26.0% and CtBP-E1A inh -7.2.
CS(=O)(=O)N1CCN(C2C3CC4CC(C3)CC2C4)CC1 (configuration not stated) was read as Sfp inh 12.9%, gsp antag 2.2%, ClpP mod -2.3%, TRPV1 PAM 6.5, gsp ag 20.9%, Menin MLL FP FL -5.3 and CtBP-E1A inh -2.0.
O=c1c2nncn2c2cc(C(F)(F)F)ccc2n1CCNc1ncc(C(F)(F)F)cc1Cl was read as Sfp inh 13.9%, gsp antag 0.1%, TRPV1 PAM 7.5, gsp ag -15.4%[15.4 µM], Menin MLL FP FL 3.4 and CtBP-E1A inh -3.5.
CC(C)(C)c1ccc(C2C(C#N)=C(N)Oc3n[nH]c(-c4cccnc4)c32)cc1 (configuration not stated) was read as Sfp inh 8.7%, gsp antag 7.7%, TRPV1 PAM 17.9, gsp ag 3.7%[15.4 µM], Menin MLL FP FL 7.0 and CtBP-E1A inh 1.8.
Screening O=C(CSc1nnc(Cc2ccccc2)o1)Nc1ccc(Br)cn1 returned Sfp inh 16.8%, gsp antag 7.5%, ClpP mod -1.0%, TRPV1 PAM 12.1, gsp ag -6.4%, Menin MLL FP FL 0.4 and CtBP-E1A inh 7.1.
For CC(C)C12CN3CC(C(C)C)(CN(C1)C31C(=O)Nc3ccccc31)C2=O (configuration not stated) the results were Sfp inh 4.6%, gsp antag 6.1%, ClpP mod 0.7%, TRPV1 PAM -12.7, gsp ag -12.4%, Menin MLL FP FL -1.3 and CtBP-E1A inh 3.8.
Screening O=C(O)CCCCNCc1ccccc1 returned Sfp inh -8.8%, gsp antag 3.4%, ClpP mod 0.1%, TRPV1 PAM 0.2, gsp ag -32.8%[inhibitor], Menin MLL FP FL 1.4 and CtBP-E1A inh 7.8.
`CC(=O)C1CCC2C3CC(C)=C4CC(O)CCC4(C)C3CCC12C` (configuration not stated) gave gsp antag -11.1%, gsp ag 21.7% and CtBP-E1A inh 0.0.
`COCC(=O)NNC(=S)Nc1cccc(C)c1C` gave Sfp inh 4.7%, TRPV1 PAM -0.6, gsp ag -10.9%[15.4 µM], Menin MLL FP FL -1.5 and CtBP-E1A inh 28.4.
For COc1ccccc1N=Cc1c(C)[nH]n(-c2ccc(C)cc2C)c1=O the results were Sfp inh -5.6%, gsp antag inconclusive, TRPV1 PAM -1.9, gsp ag 22.3%[15.4 µM], Menin MLL FP FL 0.2 and CtBP-E1A inh 1.8.
For CN(c1ccccc1)S(=O)(=O)c1ccc(C(=O)NCc2cccnc2)cc1 the results were ClpP mod 2.2%, gsp ag -7.7% and CtBP-E1A inh 21.7.
Screening C[C@H](N)c1nnc(SCc2ccc(Cl)cc2Cl)o1 returned Sfp inh 10.3%, gsp antag 1.9%, ClpP mod 0.7%, TRPV1 PAM -5.8, gsp ag 8.6%, Menin MLL FP FL -2.1 and CtBP-E1A inh 1.5.
COc1ccc(C2=NOC(C(=O)NCc3ccc(F)cc3)C2)cc1OC (configuration not stated) was read as Sfp inh 10.3%, gsp antag 25.1%, ClpP mod -1.4%, TRPV1 PAM -0.9, gsp ag 7.9%, Menin MLL FP FL 1.8 and CtBP-E1A inh 7.6.
`O=[N+]([O-])c1ccc(CSc2nc3ncc(Br)cc3[nH]2)cc1` gave Sfp inh -25.6%, gsp antag 8.5%, ClpP mod 0.0%, TRPV1 PAM 8.9, gsp ag 4.6% and Menin MLL FP FL 5.0.
Nc1nc(SCC(=O)Nc2ccc3c(c2)CCC3)n[nH]1 was read as Sfp inh 9.3%, gsp antag 3.9%, ClpP mod -4.4%, TRPV1 PAM 17.6, gsp ag 0.8%, Menin MLL FP FL 6.1 and CtBP-E1A inh -3.5.
For COc1cccc(N2C(=O)CC(NNc3nc4ccccc4s3)C2=O)c1 (configuration not stated) the results were Sfp inh 19.3%, gsp antag -6.2%, TRPV1 PAM -9.8, gsp ag 0.5%[15.4 µM], Menin MLL FP FL 2.5 and CtBP-E1A inh 0.4.
For Clc1ccccc1-c1nnc2sc(-c3ccc4c(c3)OCO4)nn12 the results were Sfp inh 10µM*, gsp antag -0.9%, ClpP mod 31.6µM*, TRPV1 PAM -9.4, gsp ag 9.9%, Menin MLL FP FL -2.1 and CtBP-E1A inh -15.7.
`Cc1cc(C)c(NC(=O)CSCc2nc3sc(C)c(C)c3c(=O)[nH]2)c(Cl)c1` gave gsp antag -11.0%, ClpP mod -20.0%, TRPV1 PAM 8.5, gsp ag 10.4% and CtBP-E1A inh -13.3.
